# Screens (PubChem)
# TRPML1 blocker – qHTS for Inhibitors of the Human Mucolipin Transient Receptor Potential 1 (TRPML1); AID 624415, 2012; TRPML1-inducible cells, Ca2+ dye fluorescence, FDSS; active compounds read low; inhibition of EC80 agonist-evoked calcium signal; activity change, negative = inhibition, % (test concentration not listed); hit rate 0.02% among 390,000; in the data active means activity change below about -50%; inconclusive means about -30% to -50%; inactive means above about -30%;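 also: stimulus is agonist 54-4 at its EC80 concentration; % is scaled to controls: 0 for no effect and ±100 for the full control effect; compound concentration not given in the record; the text of the record puts the active cut at -80%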
#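 Tet-induced TRPML1-DL cells loaded with Ca8 no-wash calcium dye were read kinetically on FDSS. Compound addition was followed by EC80 agonist 54-4 (4 uM final); inhibition was read over 110 s.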
# PINK1 modulator – A Quantitative High throughput Screen to Identify Chemical Modulators of PINK1 Expression. hit rate 0.2% among 410,000. PINK1 immunofluorescence, high-content cytometry, 24 h. Potency, µM (doses to about 76.6 µM), for inactives: at the top dose activation (PINK1 increase), hits mostly activators; active = well fitted activation curve with a large enough effect; inconclusive = small, poorly fitted or top-dose-only effect; inactive = flat fitted curve, though single readings scatter; cell line not stated here;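 also: potency is read from the fitted curve at half-maximal effect; % of control where 0% means no effect; nearly all actives have a fitted effect of over 65% in size; a mitochondrial uncoupler was the plate control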
#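 Measures PINK1 amount and localization on or inside mitochondria by immunofluorescence. Stable cells get compounds at 5 concentrations for 24 hours before fixation and staining; CCCP controls included.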
# Six1-Eya2 inh – qHTS Assay for Inhibitors of the Six1/Eya2 Interaction | activity change, % (concentration not given with the values) | Homeobox protein SIX1 (Homo sapiens) + Protein phosphatase EYA2 (Homo sapiens), … | AID 651725, 2012 | hit rate 0.56% among 360,000 | AlphaScreen GST-Six1/His-Eya2 binding, biochemical; active compounds read low; control for the full effect not named in the record; in the data active = activity change below about -65%; inconclusive = about -30% to -65%; inactive = above about -30%; also: % is scaled to controls: 0 for no effect and ±100 for the full control effect
# Target sequence (O00167 whole entry, looked up): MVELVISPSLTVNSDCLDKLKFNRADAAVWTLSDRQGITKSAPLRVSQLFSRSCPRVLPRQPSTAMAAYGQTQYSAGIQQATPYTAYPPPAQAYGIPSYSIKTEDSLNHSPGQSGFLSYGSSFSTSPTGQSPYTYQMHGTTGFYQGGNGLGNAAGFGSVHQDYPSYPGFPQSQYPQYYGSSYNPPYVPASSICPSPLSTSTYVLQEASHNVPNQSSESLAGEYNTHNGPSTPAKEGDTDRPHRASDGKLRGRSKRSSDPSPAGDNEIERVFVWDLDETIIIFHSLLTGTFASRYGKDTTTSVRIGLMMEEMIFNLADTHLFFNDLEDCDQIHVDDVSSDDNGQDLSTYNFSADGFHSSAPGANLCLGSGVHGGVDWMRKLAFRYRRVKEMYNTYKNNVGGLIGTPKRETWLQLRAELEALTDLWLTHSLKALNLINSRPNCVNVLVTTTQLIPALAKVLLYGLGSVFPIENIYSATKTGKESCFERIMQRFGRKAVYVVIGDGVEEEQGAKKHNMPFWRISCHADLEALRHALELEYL
# Target sequence (Q15475 whole entry, looked up): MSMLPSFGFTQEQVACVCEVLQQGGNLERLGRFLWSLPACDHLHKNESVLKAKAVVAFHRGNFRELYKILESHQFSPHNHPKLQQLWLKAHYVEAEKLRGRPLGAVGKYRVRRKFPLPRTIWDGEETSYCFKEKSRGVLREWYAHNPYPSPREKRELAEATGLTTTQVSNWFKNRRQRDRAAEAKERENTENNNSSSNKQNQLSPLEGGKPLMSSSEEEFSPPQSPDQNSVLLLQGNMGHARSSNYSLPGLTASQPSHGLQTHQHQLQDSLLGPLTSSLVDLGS
#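 AlphaScreen with GST-Six1 and His-Eya2 (5X mix: 250 nM and 500 nM), glutathione donor and nickel acceptor beads; buffer 50 mM Tris pH 8.0, 300 mM NaCl, 1 mM TCEP; 1 h at 37 C in the dark.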
# D2 ag – Beta-Arrestin HTS for Positive Allosteric Modulators of the Human D2 Dopamine Receptor: Agonists. hit rate 0.084% among 360,000. DiscoveRx PathHunter D2 beta-arrestin, luminescence, 90 min; 100% = 57 uM dopamine signal. D(2) dopamine receptor (Homo sapiens), P14416. AID 624465, 2012. activation, % (no concentration beside the values); in the data active = activation above about 40%; inconclusive = about 15% to 40%; inactive = below about 15%; also: compound concentration not given in the record; the text of the record calls up to 30% inactive
#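 DiscoveRx PathHunter D2 beta-arrestin cells (2,100/well) attached overnight, then compound-stimulated 90 min at 37 C in HBSS/10 mM HEPES/0.1% Tween-20 buffer; beta-galactosidase complementation read by luminescence after 1 h at ambient temperature. Dopamine 57 uM final (EC100) as control.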
# TRPML1 ag – qHTS for Agonists of the Human Mucolipin Transient Receptor Potential 1 (TRPML1); Mucolipin-1 (Homo sapiens), Q9GZU1; TRPML1-expressing cells, Ca2+ dye fluorescence, FDSS; host cell line not named in the record; reference of the full effect not given here; activation, % (test concentration not listed); hit rate 0.12% among 410,000; in the data active = activation above about 50%; inconclusive = about 30% to 50%; inactive = below about 30%; also: 0% is about no effect; the text of the record puts the active cut at 80%
#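 Tetracycline-induced TRPML1-DL cells are seeded and incubated overnight before loading with a no-wash Ca2+ dye and quencher. Agonist activity is taken from the 110 s fluorescence read following compound pin-transfer on an FDSS, before EC80 54-4 challenge.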
# CtBP-E1A blk – qHTS Assay for Inhibitors of the CtBP/E1A Interaction; CtBP / adenovirus E1A interaction (AlphaScreen); AlphaScreen GST-E1A/His-CtBP binding, 1536-well; active compounds read low; control for the full effect not named in the record; activity change, % (concentration not given with the values); hit rate 0.49% among 340,000; AID 651724, 2012; in the data active means activity change below about -65%; inconclusive means about -30% to -65%; inactive means above about -30%; also: % is scaled to controls: 0 for no effect and ±100 for the full control effect
#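 Protein mix (5X: 125 nM each GST-E1A, His-CtBP) was incubated with pinned compound 2 h at 37 deg C in dark, in 50 mM Tris pH 8.0 buffer with 300 mM NaCl. Glutathione donor and nickel acceptor beads followed; AlphaScreen signal read after 1 h.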
# * marks the source's active call; other numbers are inactive results; ? = inconclusive; · = not tested or not shown; & = joins results of further samples; [ ] = dose if it differs, or a comment.
no.	canonical_smiles	TRPML1 blocker	PINK1 modulator	Six1-Eya2 inh	D2 ag	TRPML1 ag	CtBP-E1A blk
1	CCNC(=O)C1(C)CCN(C(=O)c2ccc(-c3ccccc3)cc2)C1 (stereo not given)	·	0.0%	4	-3.0	-0.5	3
2	COCC(=O)N(C)c1nnc(-c2cnc(C)cn2)s1	-2	-0.3%	3	-2.1	1.2	-14
3	Cc1ccccc1Nc1scc(-c2ccc(Br)cc2)[n+]1-c1ccccc1C	-8	5.8%	?	-4.8	-0.3	?
4	COc1ccc(N2CCN(C(=S)NCc3ccc(C)cc3)CC2)cc1	12	2.7%	-2	9.4	3.6	2
5	Cc1cc(C(=O)NCCCN2CCOCC2)n(-c2ccccc2)n1	-1	0.2%	-8	-5.2	-0.7	-1
6	CCOC(=O)N1CCN(Cc2nc3cc(NC(=O)c4ccco4)ccc3n2C)CC1	1	-0.7%	3	-3.5	1.0	·
7	Cc1nn(Cc2ccc(C(=O)N3CCOCC3)o2)c(C)c1Br	10	-0.6%	-1	1.4	0.5	10
8	CNc1nc(SCC(=O)Nc2ccccc2)nc(N2CCOCC2)n1	5	15%	0	-2.8	-0.2	2
9	N#Cc1nc(-c2ccc(OCc3ccc(Cl)cc3)cc2)oc1NCc1cccnc1	-8	14%	-7	-1.4	4.4	-2
10	CC1CCCCN1CCCNC(=O)CN1C(=O)CSc2ccc(S(=O)(=O)N3CCOCC3)cc21 (stereo not given)	-3&18	-1.9%&-1.1%	6	-0.5	-0.1&-0.2	1
11	CCN(CC)C(=O)C1CCC(CNS(=O)(=O)c2cccc3cccnc23)CC1 (stereo not given)	-10	-0.7%	1	0.1	0.7	2
12	COn1c(SCC(N)=O)nc2ccccc2c1=O	-11	-0.1%	6	-1.5	-0.2	10
13	Cc1nn(-c2ccccc2)c(C)c1/C=N/NC(=O)c1ccccc1O	-4	2.1%	?	-2.8	-1.0	-25
14	COc1cccc(C(=O)Nc2cc(=O)n(C)c(=O)n2C)c1	-5	0.5%	3	-3.3	0.3	-1
15	COc1ccc(-c2cc(=O)oc3c(C)c(O)c(CN(C)C)cc23)cc1	25	5.1%[38.3 µM]	3	-2.8	-0.6	6
16	O=C(CSc1ccc(C(F)(F)F)cn1)Nc1ccccc1	20	1.5%	2	0.3	1.6	-14
17	CCC(C)[C@H](NC(=O)NCc1cccs1)C(=O)OC (stereo not given in full)	2	11%[38.3 µM]	4	-2.2	0.2	2
18	COc1ccc2nc(N3CCN(C(=O)c4ccco4)CC3)sc2c1	18	2.2%	·	·	1.3	·
19	CCN(Cc1ccccc1)C(=O)Cn1c(=O)n(-c2ccc(OC)cc2OC)c(=O)c2c(C)c(C)sc21	-7&0	1.7%&0.0%	5	0.2	-0.2&3.0	3
20	Nc1nc(COC(=O)c2ccc3c(c2)OCCO3)nc(Nc2ccccc2)n1	-5	-0.5%	-5	1.8	1.2	9
21	CCCCNC(=O)c1cc2c(=O)n(CC)c3ccccc3c2s1	4	3.9%	3	-3.0	-0.5	-11
22	CC1(C(=O)Nc2cccnc2)Cc2c(-c3ccccc3)ccnc2O1 (stereo not given)	21	0.0%	16	1.8	-0.8	-24
23	COc1ccc(OC(=O)c2nc(SCc3ccc(C)cc3)ncc2Cl)cc1	17	-0.6%	·	·	0.6	·
24	CCC(=O)Nc1cc2c(cc1C(=O)c1ccccc1)OCCO2	-23	-1.6%	4	-3.9	0.7	-1
25	Cc1ccccc1OCCC(=O)N(Cc1ccccc1)c1c(N)n(Cc2ccccc2)c(=O)[nH]c1=O	6	-0.9%	3	-2.4	0.9	-6
26	Cc1csc2ncc(C(=O)NCc3ccc4c(c3)OCO4)c(=O)n12	15	6.1%	-10	-2.6	0.1	-1
27	COc1ccc(Cc2nc3c4c(ncn3n2)Oc2c(ccc3ccccc23)C4c2ccc(OC)c(OC)c2)cc1 (stereo not given)	-15	2.9%	5	-1.5	1.5	6
28	Cc1noc(C)c1S(=O)(=O)N1CCN(C(c2ccccc2)c2ccc(Cl)cc2)CC1 (stereo not given)	16	-2.6%	-13	-2.2	3.8	-6
29	COc1ccc(N(C(=O)CCl)C(C)(C(=O)Nc2c(C)cccc2C)c2ccccn2)cc1 (stereo not given)	6	2.1%	2	-3.1	2.4	2
30	CCCCCCCn1c2c(c(=N)c3c1CCC3)CCCC2	30	11µM*	-6	-2.4	0.0	-15
31	COc1ccc(C2NC(=O)N(C)C3=C2C(=O)N(c2ccc(C(=O)O)cc2)C3)cc1 (stereo not given)	14	0.3%	·	·	0.2	·
32	O=C(COC(=O)Cc1ccccc1[N+](=O)[O-])NCc1ccc(Cl)cc1	21	0.4%	-5	-2.9	0.7	8
33	COc1ccc(NCc2cc3ccc(OC)cc3n(CC(=O)Nc3cccc(OC)c3)c2=O)cc1	-24	4.4%	·	·	2.8	·
34	CCOc1ncccc1C(=O)Nc1ccc(Cl)cc1	-14	-0.9%	13	-2.9	6.1	7
35	N#CCCCn1c(O)c(N=NC(=O)C(O)c2ccccc2)c2ccccc21 (stereo not given)	17	0.9%	0	4.6	1.8	1
36	COc1cc(C(=O)N2CCc3c([nH]c4ccccc34)C2c2ccc(C)cc2)cc(OC)c1OC (stereo not given)	-12	1.6%	·	·	1.5	·
37	Nc1cc(=O)[nH]c(SCC(=O)Nc2cccnc2Cl)n1	-13	-0.5%	7	-5.6	-0.4	-16
38	CC(C)(C)S(=O)N1Cc2cc(C(=O)O)nc(-c3cccc(-c4cc5ccccc5o4)c3)c2[C@H]1CCO (stereo not given in full)	·	-0.1%	-6	3.4	-0.5	4
39	Cc1cc(C)nc(SCC(=O)N(C)CC(=O)Nc2ccccc2Br)n1	0	2.3%	2	-0.5	-1.2	-23
40	CCc1nc(CN2CCCC(C(=O)Nc3ccc(-c4cccc(OC)c4)cc3)C2)c(C)[nH]1 (stereo not given)	-6	7.0%	0	-0.7	0.0	-6
41	COC(=O)c1c(NC(=O)CSc2nnnn2-c2ccccc2)sc2c1CCCC2	42	0.9%	-14	-0.8	1.1	0
42	O=c1c(Cc2ccc(Cl)cc2Cl)c(O)ccn1CCCN1CCOCC1	-9	-0.4%	15	-5.0	-0.6	0
43	O=C(c1ccc(CSc2nc3ccncc3n2Cc2ccc(F)cc2)cc1)N1CCCCCC1	6	0.4%	·	·	0.0	·
44	CC(C)(C)c1ccc(C(=O)Nc2ccccc2C(=O)OCc2cc(=O)n3ccsc3n2)cc1	-13	-0.6%	·	·	-0.6	·
45	O=C(COc1ccccc1)Nc1nonc1NC(=O)COc1ccccc1	11	-3.5%	-6	-0.7	-0.3	-11
46	Cc1ccc(NCc2nnc(SCC(=O)N3CCCCC3)n2CC2CCCO2)c(C)c1 (stereo not given)	14	-0.3%	0	-1.3	0.3	-8
47	O=C(Nc1ccc(S(=O)(=O)Nc2nccs2)cc1)c1cnc(Cl)c(Cl)c1	-10	2.2%	-30	-4.2	-0.6	·
48	C=CCN(c1ccc(F)cc1)S(=O)(=O)c1cc(C(=O)NC2CCC(O)CC2)ccc1Cl (stereo not given)	-19	1.9%	4	-2.1	0.1	-19
49	NC(=O)c1cnn2c(C(F)(F)F)cc(-c3ccc(F)cc3)nc12	2	-2.1%	?	-4.1	-1.2	?
50	COC(=O)C1=CN(c2cccc(C(F)(F)F)c2)C=C(C(=O)OC)C1c1ccc(O)c(OC)c1	18	8.1%	-1	-1.2	2.3	-10

# Some of these compounds in order of heavy-atom count, high to low.
no.	canonical_smiles	TRPML1 blocker	PINK1 modulator	Six1-Eya2 inh	D2 ag	TRPML1 ag	CtBP-E1A blk
27	COc1ccc(Cc2nc3c4c(ncn3n2)Oc2c(ccc3ccccc23)C4c2ccc(OC)c(OC)c2)cc1 (stereo not given)	-15	2.9%	5	-1.5	1.5	6
36	COc1cc(C(=O)N2CCc3c([nH]c4ccccc34)C2c2ccc(C)cc2)cc(OC)c1OC (stereo not given)	-12	1.6%	·	·	1.5	·
44	CC(C)(C)c1ccc(C(=O)Nc2ccccc2C(=O)OCc2cc(=O)n3ccsc3n2)cc1	-13	-0.6%	·	·	-0.6	·
29	COc1ccc(N(C(=O)CCl)C(C)(C(=O)Nc2c(C)cccc2C)c2ccccn2)cc1 (stereo not given)	6	2.1%	2	-3.1	2.4	2
28	Cc1noc(C)c1S(=O)(=O)N1CCN(C(c2ccccc2)c2ccc(Cl)cc2)CC1 (stereo not given)	16	-2.6%	-13	-2.2	3.8	-6
42	O=c1c(Cc2ccc(Cl)cc2Cl)c(O)ccn1CCCN1CCOCC1	-9	-0.4%	15	-5.0	-0.6	0
39	Cc1cc(C)nc(SCC(=O)N(C)CC(=O)Nc2ccccc2Br)n1	0	2.3%	2	-0.5	-1.2	-23
26	Cc1csc2ncc(C(=O)NCc3ccc4c(c3)OCO4)c(=O)n12	15	6.1%	-10	-2.6	0.1	-1
37	Nc1cc(=O)[nH]c(SCC(=O)Nc2cccnc2Cl)n1	-13	-0.5%	7	-5.6	-0.4	-16

# Going on with the list.
no.	canonical_smiles	TRPML1 blocker	PINK1 modulator	Six1-Eya2 inh	D2 ag	TRPML1 ag	CtBP-E1A blk
51	CCOC(=O)N1CCN(c2cc3[nH]c(=S)[nH]c3cc2F)CC1	16	9.3%[38.3 µM]	-2	1.2	0.1	4
52	CCn1nnnc1Oc1ccc(Cl)cc1	51	-1.6%[38.3 µM]	4	-2.9	0.1	12
53	O=C(/C=C/c1cccs1)Nc1cccnc1	-11	-2.8%	2	-5.2	-0.7	-1
54	CC(C)(C)SCCNS(=O)(=O)c1ccc(F)cc1	1	9.2%[38.3 µM]	0	3.3	0.3	-3
55	S=C(NC1CCCCC1)N1CCOCC1	18	-0.5%	0	-2.2	-0.2	6
56	COc1ccc(CNC(=O)C2CCC(CNS(=O)(=O)c3cccc4nsnc34)CC2)cc1 (stereo not given)	-4	7.8%	-3	2.5	-0.6	5
57	CCCc1ncc(CN2CCCCC2C(=O)Nc2ccc(Oc3ccccc3)nc2)cn1 (stereo not given)	0	2.1%	-4	-3.9	1.5	-3
58	COc1cccc(NC(=S)N(CCC(C)C)C(C)c2ccncc2)c1 (stereo not given)	·	0.4%	4	0.4	·	6
59	C=CCN(CC=C)CCOc1ccccc1	0	-2.2%	6	-1.5	-0.1	-1
